CtBP-E1A inh = CtBP/E1A binding inhibition | AlphaScreen GST-E1A/His-CtBP binding, 1536-well; hits give low values; control for the full effect not named in the record | activity change, % (no concentration beside the values) | hit rate 0.49% among 340,000 | AID 651724; in the data active means activity change below about -65%; inconclusive means about -30% to -65%; inactive means above about -30%; note: % is set by controls: 0 for no effect and ±100 for the full control effect; compound concentration not given in the record
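GST-E1A and His-tagged CtBP (125 nM each as 5X stock) were preincubated with pin-transferred compound for 2 h at 37 °C in the dark, then glutathione donor and nickel acceptor beads were added for 1 h before AlphaScreen reading.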
Six1-Eya2 blk = blocks human Six1 binding to Eya2 | Q15475+O00167 | AlphaScreen GST-Six1/His-Eya2 binding, biochemical; hits give low values; control for the full effect not named in the record | activity change, % (test concentration not listed) | hit rate 0.56% among 360,000 | AID 651725; in the data active = activity change below about -65%; inconclusive = about -30% to -65%; inactive = above about -30%; note: % is set by controls: 0 for no effect and ±100 for the full control effect; compound concentration not given in the record
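Homogeneous AlphaScreen proximity assay pairing GST-Six1 with His-tagged Eya2 (added as 5X mix: 250 nM and 500 nM) in 50 mM Tris pH 8.0, 300 mM NaCl, 1 mM TCEP. Glutathione donor and nickel acceptor beads; 1 h, 37 °C, dark.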
D2 PAM = potentiates the human D2 dopamine receptor allosterically; P14416; DiscoveRx D2 beta-arrestin cells, luminescence, 90 min; 100% = 57 uM dopamine signal; potentiation, % (concentration not given with the values); hit rate 0.23% among 360,000; active = potentiation of 50% or more; inconclusive = 30% to 50%; inactive = 30% or less;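 note: compound concentration not given in the record; tested on top of an EC20 dose of dopamine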
Target sequence (P14416 whole entry, looked up): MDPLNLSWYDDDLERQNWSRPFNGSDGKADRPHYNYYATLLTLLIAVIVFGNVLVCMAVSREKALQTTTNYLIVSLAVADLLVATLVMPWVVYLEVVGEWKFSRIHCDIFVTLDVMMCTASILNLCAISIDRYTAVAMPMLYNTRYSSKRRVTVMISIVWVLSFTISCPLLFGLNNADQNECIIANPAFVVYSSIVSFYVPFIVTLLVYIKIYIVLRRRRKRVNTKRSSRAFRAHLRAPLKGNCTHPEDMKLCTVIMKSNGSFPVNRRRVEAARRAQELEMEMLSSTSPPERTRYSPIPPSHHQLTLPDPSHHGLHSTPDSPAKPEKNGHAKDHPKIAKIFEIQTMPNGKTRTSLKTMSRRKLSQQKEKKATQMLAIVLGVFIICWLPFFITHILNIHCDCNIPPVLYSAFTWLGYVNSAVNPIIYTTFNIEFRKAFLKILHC
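PathHunter D2 cells, attached overnight at 37 deg C, received compound in DMSO plus dopamine at EC20 (50 nM final) for 90 min at 37 deg C. Beta-arrestin recruitment was read as luminescence after 1 h with detection reagent at ambient temperature.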
TRPV1 potentiator = potentiators of human vanilloid receptor 1 (TRPV1); TRPV1-expressing cells, Fluo-8 calcium influx, capsaicin EC20 potentiation; host cell line not named in the record; control for the full effect not named in the record; AID 540277; hit rate 0.02% among 320,000; potentiation, % at 8.33 µM; Q8NER1; active means potentiation above 80%; inconclusive means 30% to 80%; inactive means below 30%; note: 0% is about no effect
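Fluo-8 calcium influx in TRPV1-expressing cells, kinetic read (ex 480/em 520 nm). Compound added and read 3 min for agonist activity, followed by capsaicin at EC20 final and 2 min further read for enhancement.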
TRPML1 ag = human mucolipin-1 channel agonism | TRPML1-expressing cells, Ca2+ dye fluorescence, FDSS; host cell line not named in the record; reference of the full effect not given here | activation, % (concentration not given with the values) | hit rate 0.12% among 410,000 | AID 624414; in the data active = activation above about 50%; inconclusive = about 30% to 50%; inactive = below about 30%; note: 0% is about no effect; the text of the record puts the active cut at 80%
Target sequence (Q9GZU1 whole entry, looked up): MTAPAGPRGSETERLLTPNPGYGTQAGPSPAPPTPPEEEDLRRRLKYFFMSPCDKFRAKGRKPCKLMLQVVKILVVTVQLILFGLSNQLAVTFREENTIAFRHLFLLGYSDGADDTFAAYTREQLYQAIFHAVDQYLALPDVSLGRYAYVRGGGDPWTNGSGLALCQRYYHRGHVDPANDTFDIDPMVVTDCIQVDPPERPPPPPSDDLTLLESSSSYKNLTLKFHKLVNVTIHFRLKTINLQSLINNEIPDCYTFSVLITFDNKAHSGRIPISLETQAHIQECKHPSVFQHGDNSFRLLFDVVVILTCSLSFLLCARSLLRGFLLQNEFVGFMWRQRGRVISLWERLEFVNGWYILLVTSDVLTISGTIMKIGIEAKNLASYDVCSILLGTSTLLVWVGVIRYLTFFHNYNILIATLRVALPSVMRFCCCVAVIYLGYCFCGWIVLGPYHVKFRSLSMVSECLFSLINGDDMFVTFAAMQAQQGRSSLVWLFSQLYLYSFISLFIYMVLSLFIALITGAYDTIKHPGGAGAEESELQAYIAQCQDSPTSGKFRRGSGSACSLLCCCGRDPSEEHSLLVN
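Calcium fluorescence on an FDSS kinetic reader gave the read-out. Tet-induced TRPML1-DL cells were plated overnight, dye-loaded (Ca8 with quencher, 45-90 min, room temperature, dark), then read 110 s after compound addition, and again 110 s after 4uM final 54-4 (EC80).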
TRPML1 blocker = inhibitors of human TRPML1 channel; Q9GZU1; TRPML1-inducible cells, Ca2+ dye fluorescence, FDSS; hits give low values; inhibition of EC80 agonist-evoked calcium signal; activity change, negative = inhibition, % (test concentration not listed); hit rate 0.02% among 390,000; in the data active means activity change below about -50%; inconclusive means about -30% to -50%; inactive means above about -30%;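 note: stimulus is agonist 54-4 at its EC80 concentration; % is set by controls: 0 for no effect and ±100 for the full control effect; compound concentration not given in the record; the text of the record puts the active cut at -80%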
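Tet-induced TRPML1-DL cells loaded with Ca8 no-wash calcium dye were read kinetically on FDSS. Compound addition was followed by EC80 agonist 54-4 (4 uM final); inhibition was read over 110 s.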
Active calls of the source: *; ? = inconclusive; nt = no result given.

SMILES	CtBP-E1A inh	Six1-Eya2 blk	D2 PAM	TRPV1 potentiator	TRPML1 ag	TRPML1 blocker
CC(=O)c1cccc(NC(=O)C(OC(=O)c2cccs2)c2ccccc2)c1 (stereo not given)	10	1	3	-4	3.9	-4
COc1cc(NC(=O)COc2ccc(Cl)cc2)ccc1NC(=O)C(C)C	0	0	-2	7	1.3	-8
C1CCN(Cc2nnnn2CC2CCCO2)CC1 (stereo not given)	-2	5	4	-5	1.3	-9
CC(C)Oc1ccc(C(=O)NCCCNC(=O)c2ccccn2)cc1	-2	7	-5	12	1.0	62
Cc1cnc(NC(=O)C2CCC(C(C)(C)C)CC2)s1 (stereo not given)	-7	-4	-3	-12	-0.6	6
CN(C(=O)COC(=O)CCCN1C(=O)c2cccc3cccc(c23)C1=O)C1CCS(=O)(=O)C1 (stereo not given)	0	3	-7	-6	0.0	14
Cc1nnc(SCC(=O)N2CCOCC2)c2ccccc12	1	1	-3	?	-0.7	36
CCCc1nnc2c(N(C)S(=O)(=O)c3ccc(C)cc3)nc3ccccc3n12	-5	-3	-22	6	0.7	-8
CN(C(=O)c1ccc(S(=O)(=O)NC2CCCC2)cc1)C1CCCCC1	1	2	4	3	6.2	43
CC(=O)OCCN1CCN(C(=O)CN2C(=O)NC(c3ccccc3)(c3ccccc3)C2=O)CC1	4	-1	-11	-11	0.2	3
Fc1ccc(-c2ccnc3nc(N4CCN(c5ccccc5)CC4)nn23)cc1	-6	3	-5	5	0.4	3
CCCCn1c(N)c(N(CCC(C)C)C(=O)CC2OC(=O)c3ccccc32)c(=O)[nH]c1=O (stereo not given)	-5	-1	7	4	4.3	10
CCN(CC)C(=S)SCC(=O)c1c(C)[nH]c2ccccc12	25	11	26	-10	0.8	5
N=c1c2c3c(sc2nc2n1CCCCC2)CCCC3	1	-2	-7	8	0.5	-6
CCC(=NCCc1ccc(OC)c(OC)c1)C1=C(O)CC(C)(C)CC1=O	4	7	-5	9	-0.5	-22
CCSc1cc(C2C(C(=O)OC)=C(C)NC3=C2C(=O)CCC3)c(C)o1 (stereo not given)	nt	-1	1	6	0.4	-5
Cc1cc(C)n(CC(=O)N2CCCC(C(=O)c3cccc(OC(C)C)c3)C2)n1 (stereo not given)	-10	2	2	3	0.2	-19
Cc1cccc(NC(=O)CCNC(=O)c2ccccc2)c1	8	-1	-2	5	0.4	15
CNC(=O)CCn1nc(-c2ccccc2)c2ccccc2c1=O	8	4	-8	-8	-1.3	-8
CCOc1ccccc1N1CCN(C(=O)CNC(=O)c2sc3ccccc3c2Cl)CC1	-6	-11	-6	-4	0.8	43
CCOC(=O)/C(=C\c1cccnc1)C(=O)c1cc(C(C)=O)c(Nc2ccccc2)s1	-1	-9	-50	1	3.1	-4
O=C(CO/N=C/c1ccc(OC(F)F)cc1)NCc1cccs1	-4	1	-19	?	0.6	10
CCCCCn1c(=O)[nH]c2cc(C(=O)NCCCN3CCCCC3C)ccc2c1=O (stereo not given)	2	3	-15	-44	0.7	7
COc1cc2c(C#CCCCO)c(-c3ccsc3)oc(=O)c2cc1OC	nt	-16	2	nt	-0.6	-6
O=C(NC1CCC1)C1CCC(=O)N(Cc2cccc(F)c2)C1 (stereo not given)	0	4	-4	4	-0.3	41

(more compounds)
SMILES	CtBP-E1A inh	Six1-Eya2 blk	D2 PAM	TRPV1 potentiator	TRPML1 ag	TRPML1 blocker
COc1ccc(N=C2SC(CC(=O)Nc3ccc(F)cc3)C(=O)N2Cc2ccco2)cc1 (stereo not given)	-3	-5	-6	-10	0.3	44
Cc1sc2ncnc(N3CCC(C(=O)Nc4ccc(Br)cc4Br)CC3)c2c1C	3	3	-7	-5	1.5	6
Cc1cc(NC(=O)C(C)SCC(=O)Nc2cccc(S(=O)(=O)N3CCCCCC3)c2)no1 (stereo not given)	nt	-4	-19	nt	-0.8	4
CCOc1ccc2nc(NC(=O)CSc3nc4c(c(=O)n(C)c(=O)n4C)n3C(C)C)sc2c1	6	-6	-11	4	-0.7	11
Cc1nn(C)c(C)c1NC(=O)CSc1nc(-c2ccccc2Cl)nc2c1cnn2-c1ccccc1	2	0	1	2	-0.1	-18
Cc1ccc(NC(=O)CN(c2ccc(Cl)cc2)S(=O)(=O)c2cc([N+](=O)[O-])ccc2Cl)cc1	-1	-14	?	4	-0.1	-1
Cc1ccc2c(c1)N(CC(=O)N1CCCCC1)C(=O)C(C)O2 (stereo not given)	6	0	-4	0	1.6	9
Cc1cccc(S(=O)(=O)Nc2nc3ccccc3nc2NCc2ccco2)c1	-15	4	-7	7	-0.1	12
O=C1c2ccccc2S(=O)(=O)c2cc(C(=O)N3CCN(c4c(Cl)cncc4Cl)CC3)ccc21	-27	-25	-5	nt	-1.4	20
O=C1C(Cc2ccccc2O)NC(=S)N1c1ccccc1 (stereo not given)	4	4	0	3	0.6	-16
CC(=O)Nc1ccc(-c2csc(Nc3cccc(C)n3)n2)cc1	-7	-12	2	-7	-1.3	7
CCCN1Cc2cccc(C(=O)NCc3ccccc3OC)c2C1=O	-3	3	-5	-25	4.0	-3
CN(C(=O)COC(=O)COc1ccccc1F)C1CCS(=O)(=O)C1 (stereo not given)	4	7	-4	25	0.1	14
COc1ccc2c(c1OC)C[N+]1([O-])CCc3cc4c(cc3C1C2)OCO4 (stereo not given)	7	0	-21	-12	-0.2	24
Cc1c(C(=O)NCc2ccc(F)cc2)sc(=O)n1Cc1ccccc1F	9	-13	3	nt	0.0	nt
O=S(=O)(c1ccc(-c2csc(-c3cccnc3)n2)cc1)N1CCCCC1	?	-24	16	-4	0.3	34
O=c1c(Cl)c(NCc2ccc(F)cc2Cl)cnn1C12CC3CC(CC(C3)C1)C2	-2	0	5	-34	0.5	-3
N=c1c2cn[nH]c2nc(SCC(=O)c2ccc(Br)cc2)n1-c1ccc(Br)cc1	-6	-13	-3	2	0.0	-5
COc1cccc(C(=O)NNC(=O)c2cccc3ccccc23)c1	7	4	-13	nt	-0.5	8
O=C(c1ccc(F)cc1)N1CCN(C2CCCCC2)CC1	-11	2	-4	28	0.3	11
COc1ccc(NC(=O)CSc2nccc(C)n2)cc1	-1	0	-15	-1	5.9	16
CCCc1nn(C)c(C(=O)Nc2cccc(Cl)c2)c1Cl	17	31	-13	7	1.2	3
O=C(NCCCN1CCCC1=O)c1c(O)nc2ccccn2c1=O	nt	4	-3	-9	0.0	-5
CCn1c(CSc2nc3ccccc3s2)nnc1SCC(=O)NCC(=O)OC	2	1	3	-5	0.4	-5
Cc1nn(Cc2ccc([N+](=O)[O-])cc2)c(=O)n1-c1ccccc1	-3	1	1	13	-1.0	0

Reprinted at random: 2 records from the list.
SMILES	CtBP-E1A inh	Six1-Eya2 blk	D2 PAM	TRPV1 potentiator	TRPML1 ag	TRPML1 blocker
Cc1cc(C)n(CC(=O)N2CCCC(C(=O)c3cccc(OC(C)C)c3)C2)n1 (stereo not given)	-10	2	2	3	0.2	-19
CC(=O)c1cccc(NC(=O)C(OC(=O)c2cccs2)c2ccccc2)c1 (stereo not given)	10	1	3	-4	3.9	-4

Returning to the listing, starting 7 compounds before the break.
SMILES	CtBP-E1A inh	Six1-Eya2 blk	D2 PAM	TRPV1 potentiator	TRPML1 ag	TRPML1 blocker
COc1cccc(C(=O)NNC(=O)c2cccc3ccccc23)c1	7	4	-13	nt	-0.5	8
O=C(c1ccc(F)cc1)N1CCN(C2CCCCC2)CC1	-11	2	-4	28	0.3	11
COc1ccc(NC(=O)CSc2nccc(C)n2)cc1	-1	0	-15	-1	5.9	16
CCCc1nn(C)c(C(=O)Nc2cccc(Cl)c2)c1Cl	17	31	-13	7	1.2	3
O=C(NCCCN1CCCC1=O)c1c(O)nc2ccccn2c1=O	nt	4	-3	-9	0.0	-5
CCn1c(CSc2nc3ccccc3s2)nnc1SCC(=O)NCC(=O)OC	2	1	3	-5	0.4	-5
Cc1nn(Cc2ccc([N+](=O)[O-])cc2)c(=O)n1-c1ccccc1	-3	1	1	13	-1.0	0
O=C(Cc1ccc(S(=O)(=O)N2CCOCC2)s1)Nc1ccc(Br)c(C(F)(F)F)c1	14	-5	-22	nt	0.1	5
CCc1nn(CCCC(=O)Nc2ccc(C)cc2C)c(=O)c2cc3occc3n12	-9	-4	-2	14	-1.2	19
CCOc1ccc(Nc2cc(C)nc(-n3nc(C)cc3C)n2)cc1	-79*	-68*	0	8	0.2	-2
CC1(c2nnc(-c3ccncc3)o2)CC(c2ccccc2)=NO1 (stereo not given)	0	8	1	nt	1.4	-30
COc1cc(OC)cc(C(=O)OCCCOC(=O)c2cc(OC)cc(OC)c2)c1	-12	8	-3	-37	4.6	-1
CCOC(=O)c1[nH]c2c(c1C)C(=O)CC(c1ccc(F)cc1)C2 (stereo not given)	-3	-2	-2	-1	1.2	30
COCC(C)OC(=O)/C(C#N)=C\c1coc2ccc(C)cc2c1=O (stereo not given)	6	3	-1	-11	0.1	2
NC(=O)C1CCN(C(=O)C(=O)c2cn(CC(=O)N3CCCCCC3)c3ccccc23)CC1	7	0	2	2	-0.7	-8
COC(=O)c1ccc(NC(=O)c2snnc2-c2ccccc2)cc1	nt	4	-3	-3	1.0	-8
CS(=O)(=O)N1CCC2CC1c1cc(-c3ccccc3)ccc12 (stereo not given)	-12	1	-2	nt	2.0	-17
CN(Cc1ccccc1)C(=O)c1cccc(NC(=O)Cc2ccc(NC(=O)C3CCN(C(=O)C4CCCC4)CC3)cc2)c1	0	-10	-4	nt	0.8	2
COc1ccc(NCc2nn(CC(=O)c3ccc(Br)cc3)c3[n+]2CCCCC3)cc1	-12	-27	-9	3	-0.1	-12
Cc1n[nH]c(C)c1C(=O)CC1(O)C(=O)N(CCc2ccccc2)c2ccc(Br)cc21 (stereo not given)	13	5	-2	-2	0.9	-3
CCOC(=O)Nc1nc(-c2ccc(F)cc2F)cs1	0	2	-11	-16	-0.9	-10
CCOC(=O)C1(Cc2cccc(OC)c2)CCCN(Cc2cc(C(C)C)n[nH]2)C1 (stereo not given)	-1	0	0	7	0.6	4
COc1ccc(OCC(=O)NC2CC(C)(C)NC(C)(C)C2)cc1	6	2	-3	-3	0.3	0
Cc1ccc(OCCNC(=O)C2CC(=O)N(c3ccc(C)cc3)C2)cc1 (stereo not given)	-1	8	0	13	-0.2	5
Cc1cc(C)cc(N2C(=O)c3nccnc3C2=O)c1	-8	-3	-28	29	-0.5	-7
O=S(=O)(Nc1cc(F)ccc1F)c1cccc2nonc12	42	26	0	-1	-0.6	-13
O=[N+]([O-])c1ccc(COc2ccc(CN3CCOCC3)cc2)cc1	-4	-1	nt	nt	-0.7	57
Cc1cccc(OCCCC(=O)NNC(=O)c2ccc(F)cc2)c1	10	3	0	-4	0.3	-3
Cc1cc(C)nc(-n2nc(C)c(Sc3ccc(F)cc3)c2N)n1	3	-2	-5	0	4.7	-7
CN(Cc1ccccc1)C(=O)c1ccc(NC(=O)Cc2ccc(NC(=O)C3CCCN(S(=O)(=O)c4cccc([N+](=O)[O-])c4)C3)cc2)cc1 (stereo not given)	-1	-1	0	nt	-0.2	8
COc1ccc(CC(=O)NC(C)c2ccc(Cl)c(Cl)c2)cc1S(=O)(=O)N1CCOCC1 (stereo not given)	-3	2	-13	nt	2.5	14
O=C(NNC(=O)C1CCC1)c1ccccc1	-1	8	-4	5	0.4	6
COc1ccc(-c2cncc3nccn23)cc1OC	-3	4	-11	nt	0.0	20
